Screens deposited in PubChem by Broad Institute.
A1 apoptosis 2: compounds inhibiting A1, read as caspase activation. 24,000 tested, under 10 active. AID 2465. MEF A1-2A-BIM cells, caspase-Glo luminescence, 3 h; percent of clofoctol response, DMSO zero. caspase activation, % (test concentration not listed); in the data active means caspase activation above about 5.9%;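 further: wells of about 30 µL received 50 nL stock; the first replicate is given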
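Test system – A1-2A-BIM-expressing MEF cells · Input – 2500 cells/well · Medium – RPMI-1640 growth medium with 10% FBS · Compound dosing – 50 nL pinned compound · Timing – 3 h compound exposure at 37 °C · Technique – Caspase-Glo luminescence (DEVD substrate) · Evaluation – Caspase-3/7 activity from luminescence increase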
* = called active by the depositor. Some of the compounds tested (hit frequency here may not be typical).

SMILES	A1 apoptosis 2
COc1ccc(CN(C)C[C@H]2Oc3c(NS(=O)(=O)c4cccs4)cccc3C(=O)N([C@@H](C)CO)C[C@@H]2C)cc1	0.6
COc1ccc(NC(=O)O[C@H]2[C@H](OC(=O)Nc3ccccc3)[C@H](OC(=O)Nc3ccccc3)[C@@H](OC)O[C@@H]2CO)cc1	-0.1
C[C@H](CO)N1C[C@H](C)[C@@H](CN(C)C(=O)c2ccncc2)OCCCC[C@H](C)Oc2ccc(NS(C)(=O)=O)cc2C1=O	-0.2
CNC[C@H]1Oc2c(NC(=O)C3CCOCC3)cccc2C(=O)N([C@@H](C)CO)C[C@@H]1C	0.7
COc1ccc(S(=O)(=O)N(C)C[C@@H]2Oc3ccc(NC(=O)Nc4cccc5ccccc45)cc3CC(=O)N([C@@H](C)CO)C[C@@H]2C)cc1	-1.3
C[C@H]1CN([C@@H](C)CO)C(=O)Cc2cc(NC(=O)Cc3ccccc3)ccc2O[C@H]1CN(C)C(=O)NC1CCCCC1	-0.5
Cc1noc(C)c1NC(=O)Nc1ccc2c(c1)C(=O)N([C@H](C)CO)C[C@@H](C)[C@H](CN(C)Cc1ccc(C(F)(F)F)cc1)OCCCC[C@H](C)O2	-0.9
C[C@@H]1CCCCO[C@@H](CN(C)C(=O)Cc2ccccc2)[C@H](C)CN([C@@H](C)CO)C(=O)c2cc(NC(=O)Nc3ccc(C(F)(F)F)cc3)ccc2O1	-0.6
Cc1noc(C)c1S(=O)(=O)Nc1ccc2c(c1)C(=O)N([C@H](C)CO)C[C@H](C)[C@@H](CN(C)C(=O)Nc1ccccc1)OCCCC[C@@H](C)O2	-1.0
C[C@@H]1CCCCO[C@@H](CN(C)CC2CCCCC2)[C@@H](C)CN([C@H](C)CO)C(=O)c2cc(NC(=O)Nc3ccccc3)ccc2O1	-1.2
Cc1ccc(S(=O)(=O)Nc2cccc3c2O[C@H](CN(C)S(=O)(=O)c2ccccc2)[C@@H](C)CN([C@H](C)CO)C3=O)cc1	-1.8
C[C@@H]1CN([C@@H](C)CO)C(=O)CCCn2cc(nn2)CO[C@H]1CN(C)Cc1ccc2cccnc2c1	0.4
COc1ccc(CN(C)C[C@@H]2Oc3ccc(NC(=O)Cn4cnnn4)cc3CC(=O)N([C@H](C)CO)C[C@@H]2C)cc1	0.4
C=C(C)[C@@H]1CC=C(/C=N/NC(=O)CCCCCCC(=O)OC)CC1	0.3
CC(C)NC(=O)N(C)C[C@@H]1OCCCC[C@H](C)Oc2ccc(NC(=O)c3ccccc3)cc2C(=O)N([C@@H](C)CO)C[C@H]1C	0.5
COc1ccc(CN(C)C[C@H]2OCCCC[C@@H](C)Oc3ccc(NS(=O)(=O)c4ccc(F)cc4)cc3C(=O)N([C@H](C)CO)C[C@H]2C)cc1	0.0
C[C@@H]1CN([C@H](C)CO)C(=O)Cc2cc(NC(=O)C3CC3)ccc2O[C@@H]1CN(C)Cc1ccncc1	-0.1
C[C@@H]1CN([C@@H](C)CO)C(=O)c2cc(NC(=O)C3CCCCC3)ccc2O[C@@H](C)CCCCO[C@H]1CN(C)CC1CCCCC1	-1.1
C[C@@H]1CN([C@@H](C)CO)C(=O)c2cc(NC(=O)Cc3ccccc3)ccc2O[C@@H](C)CCCCO[C@@H]1CN(C)S(=O)(=O)c1ccc(F)cc1	-0.4
C[C@H](CO)N1C[C@H](C)[C@H](CN(C)C(=O)Nc2ccc(F)cc2)Oc2ncc(C#Cc3cccc(F)c3)cc2C1=O	-1.4
Cc1noc(C)c1NC(=O)N(C)C[C@@H]1OCc2cn(nn2)CCCC(=O)N([C@H](C)CO)C[C@@H]1C	-0.3
C[C@H]1CN([C@@H](C)CO)C(=O)Cc2cc(NS(=O)(=O)c3ccc(Cl)cc3)ccc2O[C@H]1CN(C)Cc1ccc(Cl)c(Cl)c1	-0.9
CC(C)NC(=O)Nc1cccc2c1O[C@H](CN(C)S(=O)(=O)c1ccccc1)[C@H](C)CN([C@@H](C)CO)C2=O	0.8
COC(=O)[C@]1(CCC(=O)OC(C)(C)C)N=C(c2ccc(OCCCO)cc2)O[C@@H]1c1ccccc1CN=[N+]=[N-]	0.3
COc1ccc(S(=O)(=O)N(C)C[C@@H]2Oc3c(NC(=O)C4CC4)cccc3C(=O)N([C@@H](C)CO)C[C@H]2C)cc1	0.1
C[C@@H]1CN([C@@H](C)CO)C(=O)c2cccc(NC(=O)Nc3ccccc3)c2O[C@@H]1CN(C)S(=O)(=O)c1cccs1	-0.6
COc1ccc(NC(=O)N(C)C[C@H]2Oc3c(NC(=O)C4CCCCC4)cccc3C(=O)N([C@@H](C)CO)C[C@H]2C)cc1	-1.1
C[C@@H]1CN([C@H](C)CO)C(=O)c2cccc(NC(=O)NC3CCCCC3)c2O[C@@H]1CN(C)S(=O)(=O)c1ccc(Cl)cc1	-0.1
C[C@H]1CN([C@@H](C)CO)C(=O)Cc2cc(NC(=O)C3CC3)ccc2O[C@H]1CN(C)S(=O)(=O)c1cccs1	-0.1
C[C@@H]1CCCCO[C@@H](CN(C)Cc2ccncc2)[C@@H](C)CN([C@@H](C)CO)C(=O)c2cc(NC(=O)c3ccncc3)ccc2O1	-0.6

Part of the list above, with bars between the fields.
Molecule | A1 apoptosis 2
C[C@@H]1CN([C@@H](C)CO)C(=O)c2cccc(NC(=O)Nc3ccccc3)c2O[C@@H]1CN(C)S(=O)(=O)c1cccs1 | -0.6
Cc1noc(C)c1NC(=O)N(C)C[C@@H]1OCc2cn(nn2)CCCC(=O)N([C@H](C)CO)C[C@@H]1C | -0.3
C[C@H]1CN([C@@H](C)CO)C(=O)Cc2cc(NC(=O)C3CC3)ccc2O[C@H]1CN(C)S(=O)(=O)c1cccs1 | -0.1
C[C@@H]1CN([C@H](C)CO)C(=O)c2cccc(NC(=O)NC3CCCCC3)c2O[C@@H]1CN(C)S(=O)(=O)c1ccc(Cl)cc1 | -0.1
C[C@H]1CN([C@@H](C)CO)C(=O)Cc2cc(NS(=O)(=O)c3ccc(Cl)cc3)ccc2O[C@H]1CN(C)Cc1ccc(Cl)c(Cl)c1 | -0.9
COc1ccc(S(=O)(=O)N(C)C[C@@H]2Oc3c(NC(=O)C4CC4)cccc3C(=O)N([C@@H](C)CO)C[C@H]2C)cc1 | 0.1

Continuation.
SMILES	A1 apoptosis 2
COc1ccc(NC(=O)Nc2cccc3c2O[C@H](CN(C)S(=O)(=O)c2ccc(Cl)cc2)[C@@H](C)CN([C@H](C)CO)C3=O)cc1	-1.1
C[C@H](CO)N1C[C@H](C)[C@@H](CN(C)S(=O)(=O)c2ccc(F)cc2)Oc2c(NC(=O)Nc3ccc(F)cc3)cccc2C1=O	-0.7
C[C@H]1CN([C@@H](C)CO)C(=O)Cc2cc(NS(=O)(=O)c3cn(C)cn3)ccc2O[C@H]1CN(C)CC1CCCCC1	-0.3
C[C@@H]1CN([C@@H](C)CO)C(=O)Cc2cc(NC(=O)CCC(F)(F)F)ccc2O[C@H]1CN(C)C(=O)Nc1ccccc1	0.8
CC(C)NC(=O)N(C)C[C@H]1OCCCC[C@H](C)Oc2ccc(NS(=O)(=O)c3ccccc3)cc2C(=O)N([C@@H](C)CO)C[C@H]1C	0.2
C[C@@H]1CN([C@H](C)CO)C(=O)c2cccc(NC(=O)NC3CCCCC3)c2O[C@@H]1CN(C)C(=O)Nc1ccc(C(F)(F)F)cc1	-0.5
C[C@H](CO)N1C[C@H](C)[C@@H](CN(C)C)Oc2ccc(NS(=O)(=O)c3ccccc3)cc2C1=O	-0.3
Cc1cc(C(=O)Nc2cccc3c2O[C@H](CN(C)C(=O)NC2CCCCC2)[C@@H](C)CN([C@H](C)CO)C3=O)n(C)n1	-0.8
C[C@@H]1CN([C@H](C)CO)C(=O)Cc2cc(NC(=O)Nc3ccc(F)cc3)ccc2O[C@H]1CN(C)Cc1ccc2c(c1)OCO2	0.1
CNC[C@@H]1OCCCC[C@H](C)Oc2ccc(NS(C)(=O)=O)cc2C(=O)N([C@@H](C)CO)C[C@H]1C	1.2
CC(C)=CCN(C(=O)C#Cc1ccccc1)[C@H](CO)c1ccccc1	-0.9
C[C@H]1CN([C@@H](C)CO)C(=O)c2cccc(NS(=O)(=O)c3ccccc3)c2O[C@@H]1CN(C)C(=O)Nc1cccc2ccccc12	-1.4
C[C@@H]1CN([C@@H](C)CO)C(=O)c2cc(NC(=O)Nc3ccc(C(F)(F)F)cc3)ccc2O[C@@H](C)CCCCO[C@H]1CN(C)Cc1ccc(C(F)(F)F)cc1	-0.6
C[C@H]1CN([C@@H](C)CO)C(=O)Cc2cc(NS(C)(=O)=O)ccc2O[C@H]1CN(C)S(=O)(=O)c1ccccc1	-1.0
C[C@@H]1CCCCO[C@H](CN(C)C(=O)Nc2ccccc2)[C@@H](C)CN([C@H](C)CO)C(=O)c2cc(NS(=O)(=O)c3ccc(F)cc3)ccc2O1	0.8
Cc1ccc(S(=O)(=O)N(C)C[C@H]2Oc3c(NC(=O)CCCCCC(=O)Nc4ccccc4N)cccc3C(=O)N([C@@H](C)CO)C[C@H]2C)cc1	-0.6
Cc1noc(C)c1NC(=O)Nc1cccc2c1O[C@H](CN(C)C)[C@H](C)CN([C@H](C)CO)C2=O	-0.9
C[C@H]1CCCCO[C@H](CN(C)C(=O)Nc2ccc3c(c2)OCO3)[C@@H](C)CN([C@@H](C)CO)C(=O)c2cc(NC(=O)c3ccccc3)ccc2O1	-1.6
COc1ccc(CN(C)C[C@@H]2OCCCC[C@H](C)Oc3ccc(NC(=O)Nc4ccc(F)cc4)cc3C(=O)N([C@H](C)CO)C[C@@H]2C)cc1	-0.5
C[C@H](CO)N1C[C@H](C)[C@@H](CN(C)S(C)(=O)=O)Oc2ccc(NC(=O)CCCCCC(=O)Nc3ccccc3N)cc2C1=O	-0.2
C[C@H](CO)N1C[C@H](C)[C@H](CN(C)Cc2ccc(Oc3ccccc3)cc2)Oc2ccc(NC(=O)CCCN(C)C)cc2C1=O	0.5
Cc1ccc(S(=O)(=O)Nc2cccc3c2O[C@H](CN(C)Cc2ccc(C(F)(F)F)cc2)[C@@H](C)CN([C@@H](C)CO)C3=O)cc1	0.2
C[C@@H]1CCCCO[C@H](CN(C)CC2CCCCC2)[C@H](C)CN([C@@H](C)CO)C(=O)c2cc(NS(=O)(=O)c3cn(C)cn3)ccc2O1	0.0
C[C@H]1CCCCO[C@H](CN(C)C)[C@@H](C)CN([C@@H](C)CO)C(=O)c2cc(NC(=O)c3ccncc3)ccc2O1	0.1
CN1CCN(C(=O)C2=C[C@@H](C3CC3)C[C@@H](OCCCCO)O2)CC1	0.4
C[C@@H]1CCCCO[C@@H](CN(C)C(=O)Nc2ccc3c(c2)OCO3)[C@@H](C)CN([C@@H](C)CO)C(=O)c2cc(NC(=O)Nc3ccc(F)cc3)ccc2O1	2.0
Cc1ccsc1/C=N/NC(=O)CCCCCCC(=O)O	2.1
Cc1noc(C)c1S(=O)(=O)Nc1ccc2c(c1)C(=O)N([C@@H](C)CO)C[C@H](C)[C@H](CN(C)S(=O)(=O)c1cn(C)cn1)O2	-0.3
COc1cc(CO)cc(I)c1O[C@H]1C=C(C(=O)NCCO)C[C@@H](NC[C@@H]2CCCO2)[C@@H]1O	0.2
CC(C)NC(=O)Nc1ccc2c(c1)C(=O)N([C@@H](C)CO)C[C@@H](C)[C@H](CN(C)Cc1ccccc1)O2	-0.1
COc1ccc(NC(=O)Nc2ccc3c(c2)C(=O)N([C@H](C)CO)C[C@H](C)[C@@H](CN(C)C(=O)NC2CCCCC2)OCCCC[C@@H](C)O3)cc1	-0.7
C[C@@H]1CN([C@@H](C)CO)C(=O)Cc2cc(NC(=O)NC3CCCCC3)ccc2O[C@@H]1CN(C)C(=O)Nc1ccccc1	0.1
C[C@H]1CN([C@@H](C)CO)C(=O)c2cccc(NC(=O)c3nc4ccccc4s3)c2O[C@H]1CN(C)Cc1ccc(-c2ccccc2)cc1	-0.8
C[C@@H]1CN([C@@H](C)CO)C(=O)c2cccc(NS(=O)(=O)c3ccccc3)c2O[C@@H]1CN(C)S(C)(=O)=O	-0.9
COc1ccc(CN(C)C[C@@H]2Oc3ccc(NC(=O)Nc4ccc(F)cc4)cc3C(=O)N([C@H](C)CO)C[C@H]2C)cc1	-1.1
COc1ccc(NC(=O)Nc2ccc3c(c2)C(=O)N([C@H](C)CO)C[C@@H](C)[C@@H](CN(C)Cc2ccc4c(c2)OCO4)OCCCC[C@@H](C)O3)cc1	-0.2
C[C@@H]1CN([C@@H](C)CO)C(=O)Cc2cc(NC(=O)CCN3CCOCC3)ccc2O[C@@H]1CN(C)C(=O)Nc1ccc(C(F)(F)F)cc1	-0.3
COc1ccc(S(=O)(=O)Nc2ccc3c(c2)C(=O)N([C@H](C)CO)C[C@H](C)[C@H](CN(C)C(=O)Nc2cccc4ccccc24)O3)cc1	0.0
C[C@H](CO)N1C[C@H](C)[C@@H](CN(C)S(=O)(=O)c2cccs2)Oc2ccc(NS(C)(=O)=O)cc2CC1=O	-0.6
C[C@@H]1CN([C@@H](C)CO)C(=O)c2cc(NS(C)(=O)=O)ccc2O[C@@H](C)CCCCO[C@H]1CN(C)C(=O)c1ccccc1	1.0
C[C@@H]1CN([C@H](C)CO)C(=O)CCCn2cc(nn2)CO[C@H]1CN(C)C(=O)NC1CCCCC1	0.4
CNC[C@@H]1Oc2c(NC(=O)Nc3cccc4ccccc34)cccc2C(=O)N([C@@H](C)CO)C[C@H]1C	0.5
C[C@H]1CN([C@@H](C)CO)C(=O)c2cccc(NC(=O)c3cnccn3)c2O[C@@H]1CN(C)Cc1ccncc1	-0.3
